VDR inh = Inhibitors of the vitamin D receptor (VDR): qHTS | Vitamin D3 receptor (Homo sapiens), P11473 | VDR-SRC2-3 peptide fluorescence polarization, 2 h | Potency, µM, inactives show max response, negative = inhibition, actives largely listed as inhibitors | 0.93% of 400,000 active | AID 504847, 2011; active means well fitted inhibition curve with a large enough effect; inconclusive means small, poorly fitted or top-dose-only effect, or another doubt; inactive means no such curve, though single readings can be large or run the other way; further: series mostly up to about 120 µM
Target sequence (P11473 whole entry, looked up): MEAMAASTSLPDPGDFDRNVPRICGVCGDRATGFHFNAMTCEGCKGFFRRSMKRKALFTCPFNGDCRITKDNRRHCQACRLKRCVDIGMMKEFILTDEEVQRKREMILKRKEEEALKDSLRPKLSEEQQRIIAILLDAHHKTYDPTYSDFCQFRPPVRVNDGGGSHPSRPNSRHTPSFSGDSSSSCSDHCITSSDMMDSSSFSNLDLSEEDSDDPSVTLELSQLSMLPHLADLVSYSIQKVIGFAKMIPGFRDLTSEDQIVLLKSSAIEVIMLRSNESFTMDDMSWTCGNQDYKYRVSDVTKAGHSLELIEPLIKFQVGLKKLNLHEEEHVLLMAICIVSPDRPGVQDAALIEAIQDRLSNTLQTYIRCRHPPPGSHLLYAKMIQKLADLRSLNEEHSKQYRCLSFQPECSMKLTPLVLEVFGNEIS
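Measured by FP: displacement of SRC2-3 coactivator peptide from VDR by library compounds, following a two-hour ambient incubation.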
An asterisk follows results filed as active. On the % scale 0 is the no-effect control and ±100 the full control effect; potency means the concentration at half of the fitted maximal effect. These rows are one share of the data. The share of hits here may be higher or lower than overall.

What do the screens show for `CCOC(=O)c1ccc(NC(=O)Cn2c(=O)oc3ccccc32)cc1`?
VDR inh: 6%

Results for OC1CCC(Nc2ncnc3sccc23)CC1 (stereo unspecified) ?
VDR inh: -2%

Results for CNc1oc(C)nc1S(=O)(=O)c1ccccc1 ?
VDR inh: -18%

Results for O=C(O)CC/C(=N/NC(=O)CNC(=O)c1ccc2c(c1)OCCO2)c1ccccc1 ?
VDR inh: -12%

What do the screens show for `COc1cc(OC)cc(C(=O)NC(C(=O)NCCc2ccccn2)C(C)C)c1` (stereo unspecified)?
VDR inh: -10%

How did O=C(CCNC(=O)Cn1ccc2ccccc2c1=O)NCCC1=CCCCC1 do in these assays?
VDR inh: 11%

How did CC1CNC(=S)N(c2ccc(F)cc2)C1=O (stereo unspecified) do in these assays?
VDR inh: -13%

Results for Cc1ccc(C(=O)CSc2nnc(C(C)C)n2C)cc1C ?
VDR inh: -1%

How did Cc1nc2c(C)cccn2c1/C(O)=C1\C(=O)C(=O)N(CCN2CCOCC2)C1c1cccs1 (stereo unspecified) do in these assays?
VDR inh: 17%

How did N#C/C(=C\c1ccc(-c2ccccc2)o1)C(=O)Nn1cnnc1 do in these assays?
VDR inh: 2%

Results for Cc1ccc(-n2ncc3c(N4CCN(c5ccc(F)cc5)CC4)ncnc32)cc1 ?
VDR inh: 11%

Results for COc1ccc(NC(=O)C(NC(C)=O)C(=O)NCc2ccc(F)cc2)cc1 (stereo unspecified) ?
VDR inh: 9%

Taken from the listing, 5 compounds:
Results for Cc1ccc(C(=O)CSc2nnc(C(C)C)n2C)cc1C ?
VDR inh: -1%

How did Cc1nc2c(C)cccn2c1/C(O)=C1\C(=O)C(=O)N(CCN2CCOCC2)C1c1cccs1 (stereo unspecified) do in these assays?
VDR inh: 17%

How did N#C/C(=C\c1ccc(-c2ccccc2)o1)C(=O)Nn1cnnc1 do in these assays?
VDR inh: 2%

Results for Cc1ccc(-n2ncc3c(N4CCN(c5ccc(F)cc5)CC4)ncnc32)cc1 ?
VDR inh: 11%

Results for COc1ccc(NC(=O)C(NC(C)=O)C(=O)NCc2ccc(F)cc2)cc1 (stereo unspecified) ?
VDR inh: 9%

Next entries follow:
How did COc1ccccc1CNC(=O)CS(=O)(=O)c1ccccc1 do in these assays?
VDR inh: -10%

Results for CCc1ccc(NC(=S)N2CCN(c3cccc(C(F)(F)F)c3)CC2)cc1 ?
VDR inh: -7%

Results for O=C(c1cc(-c2cccc(O)c2)on1)N1CCCCC1 ?
VDR inh: -5%

Results for COc1ccc(C2=NN(CC(=O)Nc3cc(C)ccc3C)C(=O)CC2)cc1 ?
VDR inh: 20%

How did CC(=O)CSc1nc(C(F)(F)F)cc(=O)n1-c1ccccc1 do in these assays?
VDR inh: -5%

How did C#CCNC(=O)C1=C[C@@H](c2ccc3c(c2)OCO3)[C@H](CCCO)[C@@H](OCC)O1 do in these assays?
VDR inh: -7%

What do the screens show for `O=C(c1ccccc1)C1C(c2ccccc2)C1[N+](=O)[O-]` (stereo unspecified)?
VDR inh: -6%

How did O=C(NCc1ccc2c(c1)OCO2)c1c(Cl)cccc1Cl do in these assays?
VDR inh: 20%

Results for COc1cc2c3c([nH]c2cc1F)C(=O)NCC3 ?
VDR inh: -20%

What do the screens show for `CCCCNC(=S)N/N=C1\CCCCc2ccccc21`?
VDR inh: -8%

What do the screens show for `Cc1c(C(=O)N2CCCCC2)sc(NC(=O)C23CC4CC(CC(C4)C2)C3)c1C#N`?
VDR inh: 13%

Results for CC(=O)N/N=C/c1cc(C)n(-c2ccc(Br)cc2)c1C ?
VDR inh: 2%

Reprinted from the part before: 2 compounds; new compounds follow.
What do the screens show for `Cc1c(C(=O)N2CCCCC2)sc(NC(=O)C23CC4CC(CC(C4)C2)C3)c1C#N`?
VDR inh: 13%

Results for CC(=O)N/N=C/c1cc(C)n(-c2ccc(Br)cc2)c1C ?
VDR inh: 2%

Results for Cc1cc(C)c(NC(=O)C2=COCCO2)c(C)c1 ?
VDR inh: 3%

Results for O=C(NCCS(=O)(=O)N1CCN(c2ccc(F)cc2)CC1)C12CC3CC(CC(C3)C1)C2 ?
VDR inh: 11%

Results for COc1ccc(C2CC(c3cccs3)=NN2C(=O)COC(=O)c2cc3ccccc3cc2O)cc1OC (stereo unspecified) ?
VDR inh: -10%

How did O=C(NCC(=O)N1CCCCC1)c1sc2ccccc2c1Cl do in these assays?
VDR inh: 7%

What do the screens show for `COc1cccc(CNC(=O)c2cc(-c3cccs3)nc3ccccc23)c1`?
VDR inh: -10%

Results for COc1ccccc1CN1COc2ccc3c(oc(=O)c4ccccc43)c2C1 ?
VDR inh: 6%

How did CCN1CCN(C(=O)/C(C#N)=C/c2ccc(OC(F)F)cc2)CC1 do in these assays?
VDR inh: -3%

How did CCOC(=O)c1sc(C)c2c1NC(c1ccc(Cl)cc1)NC2=O (stereo unspecified) do in these assays?
VDR inh: 6%

What do the screens show for `NC(=O)CSc1nnc(NC(=O)C23CC4CC(CC(C4)C2)C3)s1`?
VDR inh: -2%

What do the screens show for `O=C(NC(=S)Nc1ccccc1N1CCCCC1)c1ccc(F)cc1`?
VDR inh: 12%

What do the screens show for `CC(C)C[C@H](NC(=O)[C@H](Cc1cnc[nH]1)NC(=O)[C@@H](N)Cc1cnc[nH]1)C(=O)NCC(=O)NCC(=O)N[C@@H](C)C(=O)N[C@@H](CCCCN)C(=O)N[C@@H](CCC(N)=O)C(=O)N[C@@H](C)C(=O)NCC(=O)N[C@@H](CC(=O)O)C(=O)N[C@H](C(=O)O)C(C)C`?
VDR inh: 10%

Results for COc1ccc(N2C(=O)CC(NCc3cccs3)C2=O)cc1 (stereo unspecified) ?
VDR inh: -7%

How did CN(Cc1ccccc1)c1ccc(-c2nc(-c3ccccn3)no2)cc1[N+](=O)[O-] do in these assays?
VDR inh: 22%

Results for Cc1cc(NC(=O)c2ccc3c(c2)OCO3)ccc1NC(=O)c1ccccc1 ?
VDR inh: 2%

What do the screens show for `COc1ccc2cc(C3(C)NC(=O)N(CC(=O)Nc4c(C)n(C)n(-c5ccccc5)c4=O)C3=O)ccc2c1` (stereo unspecified)?
VDR inh: 16%

Results for CCc1cccc2c(C(=O)CSc3nncn3-c3ccccc3OC)c[nH]c12 ?
VDR inh: 16%

Results for CN(CCCNC(=O)c1cccc(N2CCCC2=O)c1)c1ccccc1 ?
VDR inh: 5%

Results for Cc1ccc(NC(=O)C(=O)NCc2ccc(Cl)cc2)cc1 ?
VDR inh: -9%

How did CN(C)C(=O)N(CCCN1CCOCC1)Cc1cccc2ccccc12 do in these assays?
VDR inh: 10%

What do the screens show for `COc1ccccc1NS(=O)(=O)c1cc(C(=O)NCc2ccncc2)ccc1C`?
VDR inh: -4%

What do the screens show for `Cc1scc(C(=O)N/N=C/c2ccco2)c1C`?
VDR inh: 17%

How did CC1=Nc2ccccc2/C1=C/c1sc(=S)n(-c2cccc(C(=O)O)c2)c1O do in these assays?
VDR inh: -3%

Results for Cc1cc(C(=O)Nc2c(C)nn(Cc3ccc(Cl)cc3)c2C)no1 ?
VDR inh: 13%

How did CCOCC(=O)Nc1ccccc1C(=O)O do in these assays?
VDR inh: -5%

Some of these compounds in order of number of heavy atoms, high to low:
How did CN(Cc1ccccc1)c1ccc(-c2nc(-c3ccccn3)no2)cc1[N+](=O)[O-] do in these assays?
VDR inh: 22%

What do the screens show for `Cc1scc(C(=O)N/N=C/c2ccco2)c1C`?
VDR inh: 17%

How did CCOCC(=O)Nc1ccccc1C(=O)O do in these assays?
VDR inh: -5%

(more compounds)
How did CCOC(=O)c1c(C)oc2c1c(C(c1ccccc1)N1CCOCC1)c(O)c1ccccc12 (stereo unspecified) do in these assays?
VDR inh: -14%

What do the screens show for `COc1ccc(C(=O)NCC(c2ccc(N(C)C)cc2)N2CCOCC2)cc1` (stereo unspecified)?
VDR inh: 15%

How did COCCNC(C)C(=O)C12CC3CC(CC(C3)C1)C2 (stereo unspecified) do in these assays?
VDR inh: 2%

Results for C=CCn1c(-c2ccc(S(=O)(=O)N3CCOCC3)cc2)csc1=Nc1ccccc1 ?
VDR inh: -4%

What do the screens show for `Cc1ccc(C(=O)NCC(c2ccco2)N2CCc3ccccc32)cc1C` (stereo unspecified)?
VDR inh: -17%

What do the screens show for `O=C(CN1CCN(C(=O)c2cncn2-c2ccccc2)CC1)Nc1ccccc1Cl`?
VDR inh: 6%

What do the screens show for `CCN(CC(=O)Nc1ccc2c(c1)OCCO2)S(=O)(=O)c1ccccc1`?
VDR inh: -11%

What do the screens show for `CN(C)CCCNC(=O)c1ccc(/C=N/O)nc1`?
VDR inh: -10%

Results for Cc1ccc(N2CCN(c3ncccc3[N+](=O)[O-])CC2)c(C)c1 ?
VDR inh: -12%

What do the screens show for `O=C(O)c1ccc(S(=O)(=O)c2ccc3c(c2)C(=O)N(CC2CCCO2)C3=O)cc1` (stereo unspecified)?
VDR inh: 4%

How did CC(C)(C)NC(=O)CCCSc1nc2ccccc2s1 do in these assays?
VDR inh: 10%

What do the screens show for `COc1ccc(Cn2c(N)c(C#N)c3nc4ccccc4nc32)cc1`?
VDR inh: -21%

2 records picked at random from those above, as already listed:
What do the screens show for `Cc1ccc(C(=O)NCC(c2ccco2)N2CCc3ccccc32)cc1C` (stereo unspecified)?
VDR inh: -17%

What do the screens show for `O=C(CN1CCN(C(=O)c2cncn2-c2ccccc2)CC1)Nc1ccccc1Cl`?
VDR inh: 6%

Carrying on.
Results for Cn1c2c(c3ccccc31)CCN1CCC[C@]21c1ccccc1 ?
VDR inh: -17%

Results for CC1(C)C[C@H]2C3=CCC4[C@@]5(C)CC[C@H](O)[C@](C)(CO)C5CC[C@@]4(C)[C@]3(C)CC[C@@]2(C)[C@H](O)[C@@H]1O (stereo partly specified) ?
VDR inh: -20%

How did Cc1ccccc1OCc1n[nH]c(=S)n1-c1cccc(Cl)c1 do in these assays?
VDR inh: -7%

What do the screens show for `O=C(CCl)c1ccc2[nH]c(=O)oc2c1`?
VDR inh: -17%

Results for Cc1cc(NC(=O)C(C)SCC(=O)Nc2ccccc2N2CCCCC2)no1 (stereo unspecified) ?
VDR inh: -13%

Results for CCN(c1ccccc1)S(=O)(=O)c1ccc2[nH]c(=O)[nH]c2c1 ?
VDR inh: -1%

Results for COc1ccc(OC)c(C2=NOC(C(=O)Nc3ccccc3SC)C2)c1 (stereo unspecified) ?
VDR inh: -18%

What do the screens show for `CC(C)CN1CCC2(CC1)CCN(C(=O)c1cccc(F)c1)CC2`?
VDR inh: 2%

What do the screens show for `COc1cc(-c2noc(C)c2C(=O)N[C@@H](CO)Cc2ccccc2)cc(OC)c1OC`?
VDR inh: -1%

Results for COc1ccc(CNc2nc(NCc3ccc(OC)cc3)n(C(=O)c3ccccc3[N+](=O)[O-])n2)cc1 ?
VDR inh: 12%

How did CC(C)NC(=O)N1CCCC2(CCN(C(=O)c3csnn3)CC2)C1 do in these assays?
VDR inh: -1%

Results for Cc1ccc(NCc2nnc(SCC(=O)N3CCc4ccccc43)n2C)cc1 ?
VDR inh: -12%

Results for Cc1ccsc1C(=O)N/N=C/c1ccc([N+](=O)[O-])cc1 ?
VDR inh: -30%

What do the screens show for `Cc1ccc(C)c(S(=O)(=O)N2CCCOC2CNC(=O)C(=O)NCCCn2ccnc2)c1` (stereo unspecified)?
VDR inh: -4%

What do the screens show for `Cc1cccc(NS(=O)(=O)c2c(C)n[nH]c2C)c1`?
VDR inh: -1%

How did CC(=O)Nc1ccc(S(=O)(=O)N(C)CC(=O)NCCC2=CCCCC2)cc1 do in these assays?
VDR inh: -3%

What do the screens show for `CC(C)C(OC(=O)c1cccs1)C(=O)NCc1ccc2c(c1)OCO2` (stereo unspecified)?
VDR inh: 8%

How did CCOC(=O)c1c(NC(=O)COC(=O)CCOc2cc(C)ccc2C)sc(C(=O)N(C)C)c1C do in these assays?
VDR inh: -3%

Results for Cc1ccc2c(c1)cc1c(=O)[nH]ncn12 ?
VDR inh: 1%

What do the screens show for `CCOc1ccc(NC2=NC(C(=O)NCc3ccccc3)CC(=O)N2)cc1` (stereo unspecified)?
VDR inh: 2%

Results for CCn1cc(CN2CCc3c([nH]c4ccccc34)C2c2cccc(OC)c2OC)c(C)n1 (stereo unspecified) ?
VDR inh: -20%

What do the screens show for `CCC(CC)C(=O)NCc1nc2cccnc2n1Cc1ccc(F)cc1`?
VDR inh: -1%

Results for Cc1ccc(NC(=O)Cn2ncc3c([nH]c4ccccc43)c2=O)cc1Cl ?
VDR inh: -9%

What do the screens show for `Nc1nnc(SCc2nc3scc(-c4ccccc4)c3c(=O)[nH]2)s1`?
VDR inh: 2%

What do the screens show for `COc1ccc(-c2nn(-c3ccccc3C)cc2CNCCc2cnc[nH]2)cc1F`?
VDR inh: 5%

What do the screens show for `CC(C)c1cc(C(=O)N2CCN(C(c3ccccc3)c3ccccc3)CC2)no1`?
VDR inh: 3%

What do the screens show for `CC(Sc1ccc2nnc(-c3ccc(F)cc3)n2n1)C(=O)O` (stereo unspecified)?
VDR inh: inconclusive

What do the screens show for `O=c1c2ccccc2nc2n1C(CSCc1ccc(Cl)cc1Cl)CS2` (stereo unspecified)?
VDR inh: 15%

What do the screens show for `Cc1ccc(S(=O)(=O)N(C)Cc2ccc(C(=O)N/N=C/c3ccc(OC(F)F)cc3OC(F)F)cc2)cc1`?
VDR inh: -1%

How did Cc1csc(SCC(=O)NCc2ccccc2)n1 do in these assays?
VDR inh: -2%
